# gsp agonist = qHTS for Agonist of gsp, the Etiologic Mutation Responsible for Fibrous Dysplasia/McCune-Albright Syndrome: qHTS; gsp mutant cells, cAMP HTRF, 30 min; control for the full effect not named in the record; Potency, µM (series often up to 76.9 µM), without a hit: at the highest dose activation (cAMP increase), most hits filed as activators; 340,000 tested, 0.13% active; active = well fitted activation curve with a large enough effect; inconclusive = small, poorly fitted or top-dose-only effect, or another doubt; inactive = no such curve, though single readings can be large or run the other way; cell line not stated here;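 also: phosphodiesterase inhibitor Ro 20-1724 added with compounds to block cAMP breakdown; potency is read from the fitted curve at half-maximal effect; nearly all actives have a fitted effect of over 60% in size; about a fifth of the inactives were tested at one dose only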
#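 Cells stably selected in G418 were plated at 2000/well, grown 16-24 hr, then given compounds in DMSO with the PDE inhibitor […] (300 uM solution added) for 30 min at 37C; cAMP was read by HTRF.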
# Sfp PPTase inh = qHTS Assay for Inhibitors of Bacillus subtilis Sfp phosphopantetheinyl transferase (PPTase); 4'-phosphopantetheinyl transferase ffp (Bacillus subtilis), Q9F4F7; Biochemical Sfp PPTase activity, qHTS; Potency, µM, for inactives: max response, negative = inhibition, hits mostly inhibitors; 310,000 tested, 3.5% active; active = well fitted inhibition curve with a large enough effect; inconclusive = small, poorly fitted or top-dose-only effect, or another doubt; inactive = no such curve, though single readings can be large or run the other way;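 also: the enzyme is Sfp with the accession as filed and its product quenches rhodamine fluorescence; potency is read from the fitted curve at half-maximal effect; 0% = enzyme reaction without inhibitor and -100% = no enzyme wells; top concentration of the series not given in the record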
#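 With Hepes-Na pH 7.6 buffer containing 10 mM MgCl2, Sfp (15 nM) modified BHQ-2-YbbR (12.5 uM) using rhodamine-CoA (5 uM). Two reads 30 minutes apart at 525/598 nm yielded each well's rate.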
# gsp antagonist = qHTS for Antagonists of gsp, the Etiologic Mutation Responsible for Fibrous Dysplasia/McCune-Albright Syndrome: qHTS. 340,000 tested, 0.4% active. gsp-mutant cells, cAMP HTRF, 30 min; control for the full effect not named in the record. Potency, µM (series often up to 76.9 µM), without a hit: at the highest dose activity change, negative = inhibition, actives largely listed as inhibitors. AID 624288, 2012; active = falling curve of any shape with a large fitted effect; inconclusive = falling curve, mostly with a smaller effect; inactive = flat or rising curve; cell line not stated here;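 also: intracellular cAMP measured with PDE inhibitor Ro 20-1724 present during compound exposure; potency is read from the fitted curve at half-maximal effect; % is scaled to controls: 0 for no effect and ±100 for the full control effect; nearly all actives have a fitted effect of over 65% in size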
#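 HTRF cAMP read-out (cAMP-d2 plus anti-cAMP antibody-K in lysis buffer, 30 min RT). Before lysis, cells are exposed to compounds with […] for 30 min at 37C in DPBS containing Ca/Mg, BSA and Tween 20.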
# TRPV1 PAM = HTS Assay for Compounds that Act as Potentiators of the Vanilloid Receptor 1 | 320,000 tested, 0.02% active | potentiation, % at 8.33 µM | TRPV1-expressing cells, Fluo-8 calcium influx, capsaicin EC20 potentiation; host cell line not named in the record; control for the full effect not named in the record | AID 540277, 2011 | Transient receptor potential cation channel subfamily V member 1 (Homo sapiens), Q8NER1; active means potentiation above 80%; inconclusive means 30% to 80%; inactive means below 30%; also: 0% is about no effect
# Target sequence (Q8NER1 whole entry, looked up): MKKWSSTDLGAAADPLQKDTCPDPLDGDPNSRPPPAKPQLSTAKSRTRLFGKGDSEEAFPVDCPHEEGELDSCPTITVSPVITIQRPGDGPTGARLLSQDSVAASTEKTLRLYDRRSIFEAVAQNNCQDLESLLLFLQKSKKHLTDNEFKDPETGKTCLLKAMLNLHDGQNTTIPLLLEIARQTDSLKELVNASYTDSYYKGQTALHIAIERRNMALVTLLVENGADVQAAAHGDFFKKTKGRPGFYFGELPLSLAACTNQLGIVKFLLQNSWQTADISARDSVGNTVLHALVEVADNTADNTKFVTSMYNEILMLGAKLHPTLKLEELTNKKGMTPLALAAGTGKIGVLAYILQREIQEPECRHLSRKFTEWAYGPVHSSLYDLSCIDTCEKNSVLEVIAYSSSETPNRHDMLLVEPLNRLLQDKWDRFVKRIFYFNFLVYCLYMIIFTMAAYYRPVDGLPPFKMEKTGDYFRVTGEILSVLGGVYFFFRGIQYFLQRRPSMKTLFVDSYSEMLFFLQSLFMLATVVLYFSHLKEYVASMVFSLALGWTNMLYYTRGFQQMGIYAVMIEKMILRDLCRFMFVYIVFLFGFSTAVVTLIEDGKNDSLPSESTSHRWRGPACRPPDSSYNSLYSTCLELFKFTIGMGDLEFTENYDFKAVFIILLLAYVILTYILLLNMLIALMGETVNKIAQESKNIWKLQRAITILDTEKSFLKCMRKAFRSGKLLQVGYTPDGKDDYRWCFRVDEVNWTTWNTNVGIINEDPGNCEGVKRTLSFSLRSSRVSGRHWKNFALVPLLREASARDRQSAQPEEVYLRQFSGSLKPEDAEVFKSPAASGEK
#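 TRPV1-expressing cells were cultured overnight at 35.5C and loaded with Fluo-8 calcium dye for 40 to 90 min at room temperature. After a 10 s baseline, compound was added and calcium influx was read kinetically for 3 min (ex 480/em 520 nm).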
# D2 potentiator = Beta-Arrestin HTS for Positive Allosteric Modulators of the Human D2 Dopamine Receptor: Potentiators; D(2) dopamine receptor (Homo sapiens), P14416; DiscoveRx D2 beta-arrestin cells, luminescence, 90 min; 100% = 57 uM dopamine signal; potentiation, % (test concentration not listed); 360,000 tested, 0.23% active; active = potentiation of 50% or more; inconclusive = 30% to 50%; inactive = 30% or less;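 also: compound concentration not given in the record; tested on top of an EC20 dose of dopamine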
#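 PathHunter beta-arrestin assay in DiscoveRx D2 cells. Compounds were added with an EC20 of dopamine (50 nM final) for 90 min at 37 deg C. Luminescence was read 1 h after detection reagent, with 57 uM dopamine as the EC100 control.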
# ClpP mod = qHTS Assay for Activators of ClpP; ATP-dependent Clp protease proteolytic subunit (Bacillus subtilis (strain 168)), P80244; purified B. subtilis ClpP, FRET peptide cleavage, 20 min; Potency, µM (series often up to 57.5 µM), inactives show top-dose activity change, negative = active; 340,000 tested, 1.9% active; AID 651965, 2013; active = well fitted falling curve with a large enough effect; inconclusive = small, poorly fitted or top-dose-only effect; inactive = no such curve, though single readings can be large or run the other way; also: potency is read from the fitted curve at half-maximal effect; the source files actives as falling curves though it sought activators and does not explain the sign; nearly all actives have a fitted effect of over 65% in size; many hits overshoot -100%
# Target sequence (P80244 whole entry, looked up): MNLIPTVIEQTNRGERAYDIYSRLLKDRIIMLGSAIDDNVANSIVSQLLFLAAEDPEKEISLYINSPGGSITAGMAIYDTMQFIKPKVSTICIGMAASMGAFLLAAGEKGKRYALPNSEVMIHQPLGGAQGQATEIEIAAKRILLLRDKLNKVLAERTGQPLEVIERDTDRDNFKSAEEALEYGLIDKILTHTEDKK
#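 Buffer: 100 mM Tris/HCl pH8, 100 mM KCl, 0.05% low protease BSA, 2.5% glycerol, 0.01% Tween-20. ClpP 10 microg/mL final; 20 min RT; delta FRET normalized to ADEP and DMSO controls.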
# Menin-MLL FL inh = qHTS Assay for Inhibitors Targeting the Menin-MLL Interaction in MLL Related Leukemias: Competition With Fluorescein Labeled MLL-derived Peptide. AID 1766, 2009. Fluorescence polarization, fluorescein-MLL peptide displacement from menin. FP activity change, % at 61.4 µM. 290,000 tested, under 10 active; inconclusive = falling polarisation curve, or a change in total fluorescence; inactive = total fluorescence flat and polarisation flat or rising; no compound was filed as active; the % refers to the polarisation; negative = inhibition;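 also: % of control where 0% means no effect; inhibitors lower the polarisation; unlabelled MLL peptide was the positive control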
# Active calls of the source: *; ? = inconclusive; . = not tested or not shown; & = joins results of further samples; [ ] = another dose, or the depositor's remark.
SMILES,gsp agonist,Sfp PPTase inh,gsp antagonist,TRPV1 PAM,D2 potentiator,ClpP mod,Menin-MLL FL inh
NC(=O)CSc1nnc(-c2cccc(S(=O)(=O)N3CCOCC3)c2)n1C1CCCCCC1,15.7%,10.9%,-5.2%,14.5,-10.6,0.5%,0.3
Cc1nnc(NC(=O)C2(c3ccccc3)CCOCC2)s1,6.9%,18.9%,12.1%,-2.0,-1.5,-2.5%,0.0
COc1ccc(Cn2c(=O)sc3ccccc3c2=O)cc1,0.7%[15.4 µM],-5.1%,-3.8%,-14.2,-4.4,.,0.7
O=c1[nH]cnc2ccsc12,8.2%[15.4 µM],0.7%,8.0%,10.8,-7.7,.,-2.0
O=c1oc(/C=C/c2ccccc2)nc2ccccc12,3.9%[15.4 µM],17.7%,-31.1%,7.5,-0.6,.,0.9
Cc1cc(Cn2nc(-c3ccccc3C)cc2C(=O)O)on1,.,.,13.7%,9.0,-8.5,0.6%,.
CC(=O)c1ccc(-c2nnc(CCC(=O)N(C)Cc3cccc4cnccc34)o2)s1,0.4%[15.4 µM],12.3%,-10.8%,-2.2,-16.4,.,0.3
CC(CCc1ccc(O)cc1)NCCc1ccc(O)c(O)c1 (stereo not given),.,?,-3.6%,.,-18.7,-0.8%,2.4&3.8
Cc1ccc(NC(=O)Nc2c(Cl)cccc2Cl)cn1,-38.1%[inhibitor],-3.7%,-14.1%,-16.7,6.9,0.1%,0.2
CCN1CCN(c2ccc(S(=O)(=O)N3CCCCC3)cc2NC(=O)/C=C/c2cc(OC)ccc2OC)CC1,7.5%,-18.0%,-23.8%,11.4,-14.2,-25.9%,.
O=C(CSc1ccccc1)Nc1cccc(S(=O)(=O)N2CCCC2)c1,-28.7%,-0.6%,-3.3%,-5.6,16.9,-7.9%,-0.9
O=C(COc1ccccc1Br)N1CCN(C(=O)c2ccco2)CC1,-5.3%,11.5%,5.8%,2.6,-3.1,0.2%,.
O=C(Nc1nnc(-c2ccncc2)s1)Nc1ccccc1F,-35.8%[inhibitor],-15.4%,?,1.1,-0.9,.,-0.4
CSc1ccccc1OCc1cc(C(=O)N(C)Cc2nonc2C)no1,-3.3%[15.4 µM],5.4%,-6.8%,1.2,-18.3,-2.4%,-0.8
CCCCn1cc([N+](=O)[O-])nc1C,-5.2%,22.9%,6.9%,-4.4,-13.4,2.3%,1.9
CC(=O)c1c(C)[nH]c(C(=O)OCc2cc(-c3ccco3)on2)c1C,-4.3%[15.4 µM],.,-3.5%,.,2.0,.,.
COc1ccc(S(=O)(=O)NCCc2csc(-c3cccnc3)n2)cc1,-0.2%,11.7%,6.7%,11.6,-1.1,3.8%,-0.7
Cn1nc2c(c1C(=O)O)CCCC2,-32.5%[inhibitor],10.4%,-7.2%,-0.1,8.4,1.8%,2.3
O=C(CCCn1cnc([N+](=O)[O-])n1)Nc1cccc2ccccc12,3.3%[15.4 µM],-13.2%,7.2%,-11.2,1.4,.,1.2
Cc1ccc2nc(-c3ccc(NC(=S)NC(=O)C(C)C)cc3)sc2c1,36.2%,-1.4%,5.6%,-2.0,-4.9,52.9%,10.7
CCn1c(=O)c(=O)n(CC)c2cc(S(=O)(=O)Nc3cc(C)ccc3C)ccc21,22.1%,22.7%,-14.9%,-2.3,-46.0,-13.2%,1.9
COC(=O)NC1(C(F)(F)F)NC(=O)N(C2CCCCC2)C1=O (stereo not given),2.9%,11.3%,5.3%,7.5,-3.4,-1.4%,0.6
COc1ccccc1N1CCN(CC(=O)NC(=O)NCc2ccco2)CC1,-5.3%,7.6%,3.3%,22.8,-31.8,-10.3%,-1.5
COC(=O)c1cc(NC(=O)Cc2cccs2)cc(C(=O)OC)c1,-5.7%,16.1%,-9.4%,-12.7,-25.3,-1.1%,12.1
COCCCNC(=O)c1c(NC(=O)c2cccs2)sc2c1CCCC2,-0.7%,-4.2%,-1.7%,-26.4,6.4,3.2%,5.9
Cc1ccc(-c2ocnc2C(=O)Nc2ccccc2C(=O)N2CCCC2)cc1,12.6%[15.4 µM],5.6%,-5.4%,-15.9,-6.6,.,.
CC(NC(=O)Cc1cccc(C(F)(F)F)c1)c1ccc(F)cc1 (stereo not given),13.6%[15.4 µM],17.6%,-12.3%,-5.2,-0.5,.,-0.5
Cn1c(=O)c(/C=C/c2ccccc2)nc2ccccc21,-8.6%,-4.9%,-17.3%,1.5,-7.0,?,-2.2
Oc1c(C(c2ccccc2)N2CCc3ccccc3C2)sc2ncnn12 (stereo not given),-21.3%,79.4µM*,-13.4%,3.9,-7.7,-3.3%,-4.9
Nc1n[nH]c(=S)n1/N=C1/C(=O)Nc2ccccc21,21.4%,11.2µM*,-24.7%,7.1,1.7,2.6%,0.8
COc1ccc(C2NCCCC2c2ccccc2)cc1 (stereo not given),-16.4%,.,4.6%,.,-10.1,1.8%,.
COC(c1ccccc1)c1nnc(CCC(=O)NCCC(C)C)o1 (stereo not given),4.4%[15.4 µM],17.7%,-2.3%,-3.3,-5.7,.,-2.3
Cc1ccc(NC2CCCN(C(=O)CN3C(=O)c4ccccc4C3=O)C2)cc1C (stereo not given),-16.6%[15.4 µM],-5.5%,9.4%,4.8,-14.1,0.5%,.
CCCSc1ccc2nc(-c3ccccc3)cn2c1,5.3%,?,4.0%,-6.3,-10.2,22.4µM*,-0.6
CCOC(=O)c1sc(NC(=O)Cc2ccc(C)cc2)nc1C,-3.4%,7.6%,-3.2%,7.7,-10.8,-0.9%,0.5
O=c1[nH]cnc2c1cnn2Cc1ccccc1,-30.7%,4.1%,8.0%,21.0,-12.0,1.3%,-0.6
COc1ccc(S(=O)(=O)NC(C)C(=O)Nc2ccc3c(c2)OCO3)cc1OC (stereo not given),-23.3%,9.0%,2.4%,-0.7,-5.2,.,4.2
CCC(CC)NC(=O)c1cc2c(C)nn(Cc3ccccc3Cl)c2s1,-2.8%,12.0%,-5.7%,5.5,-12.1,-0.6%,2.5
CC1CCN(S(=O)(=O)c2ccc(C(C)C)cc2)CC1,9.7%,7.2%,-14.2%,0.3,-7.9,.,-3.2
O=C(CCn1nnc(-c2cccs2)n1)NC1CCCCC1,-32.5%[inhibitor],-0.8%,2.9%,-14.2,-2.6,-0.1%,2.3
CC1CCN(c2ccc([N+](=O)[O-])cc2C(=O)O)CC1,-5.2%,17.5%,-14.6%,-2.1,-6.2,1.1%,6.0
CC1CN(C(=S)Nc2cccc(Cl)c2Cl)CC(C)O1 (stereo not given),-14.3%,-2.9%,9.0%,-5.6,9.4,-0.3%,-1.9
O=C(CS(=O)c1cccc(Cl)c1)Nc1ccccc1Cl (stereo not given),27.1%,22.3%,3.6%,-9.5,-1.8,3.3%,4.3
O=C(CNS(=O)(=O)c1cccs1)N1CCN(c2ccccc2F)CC1,-0.1%[15.4 µM],9.7%,-19.0%,-0.7,-8.2,-0.3%,-6.5
CCOC(=O)c1ccc(NS(=O)(=O)CC)cc1,-4.0%,2.1%,6.3%,1.1,25.4,-0.6%,-0.5
Cc1cc(C(=O)CN2C(=O)c3ccccc3S2(=O)=O)c(C)n1-c1ccccc1,-2.2%,5.3%,-15.7%,-2.1,0.5,-0.8%,14.4
O=C(COc1ccc(C(F)(F)F)cc1[N+](=O)[O-])Nc1cccc(C(F)(F)F)c1,-0.9%[15.4 µM],16.5%,-2.2%,12.0,-4.6,0.8%,3.9
O=C(O)CSc1c(-c2ccccc2)[nH]c2ccccc12,0.1%[15.4 µM],-0.4%,-6.9%,10.1,-2.5,.,0.7
COc1ccc(NC(=O)N(Cc2ccc3c(c2)OCO3)C2CC(=O)N(c3ccc(OC)cc3)C2=O)cc1 (stereo not given),5.6%,18.5%,-15.6%,1.9,-12.9,-2.6%,1.9
CCC(CC)N1CCN(C(=O)c2cc(OC)c(OC)c(OC)c2)CC1,3.6%,?,8.2%,-0.3,-4.5,-3.8%,0.2
C=CCOC(=O)C1=C(C)NC(SCC(=O)NC(=O)OCC)=C(C#N)C1c1cccnc1 (stereo not given),1.7%&-43.3%,?,-1.6%&-16.7%,9.1,-14.1&2.1,92.2%&157.0%,?
O=C(CCS(=O)(=O)Cc1ccccc1)NCc1ccco1,-2.0%,12.2%,0.4%,2.5,14.3,0.4%,1.1
Cc1ccc(-n2cc(CNCCN3CCOC3=O)c(-c3cccc(C)c3)n2)cc1,-12.5%[15.4 µM],44.7µM*,-2.1%,-17.4,-13.5,.,-9.2
O=C(CSc1nc(C2CC2)nc2ccccc12)N1CCCCC1,40.0%,5.0%,-9.4%,?,2.4,.,0.0
COc1ccc(N2CC(C(=O)N3CCC(c4nc5ccccc5[nH]4)CC3)CC2=O)cc1 (stereo not given),1.1%,.,3.2%,6.8,-18.5,-0.5%,.
CN1OC[C@@H]2CN(C(=O)C(C)(C)C)[C@H](c3cccc(Br)c3)C[C@@H]21,.,.,-1.2%,.,2.2,-0.3%,.

# Grouped by structure, the compounds so far with bromine.
SMILES,gsp agonist,Sfp PPTase inh,gsp antagonist,TRPV1 PAM,D2 potentiator,ClpP mod,Menin-MLL FL inh
O=C(COc1ccccc1Br)N1CCN(C(=O)c2ccco2)CC1,-5.3%,11.5%,5.8%,2.6,-3.1,0.2%,.
CN1OC[C@@H]2CN(C(=O)C(C)(C)C)[C@H](c3cccc(Br)c3)C[C@@H]21,.,.,-1.2%,.,2.2,-0.3%,.

# From PubChem
